Rango dissoc inh = inhibitors of RanGTP-induced Rango-importin beta complex dissociation; Biochemical FRET Rango-importin beta, RanGTP-induced dissociation; Potency, µM (highest dose often 46.1 µM), without a hit: top-dose activity change, negative = inhibition; O95149+P62826; 0.071% of 340,000 active; active means falling FRET ratio curve, often poorly fitted, with flat reads before Ran was added; inconclusive means other falling curves, or compound fluorescence or quenching; inactive means flat or rising ratio curve;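 further: potency means the concentration at half of the fitted maximal effect; % of control where 0% means no effect; nearly all actives have a fitted effect of over 45% in size; -100% = wells without RanGTP and RCC1; the record marks most hits as doubtful in a second field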
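Quantitative HTS using a FRET biosensor: 0.1 uM Rango, 0.25 uM importin beta, 0.6 uM Ran, 2 mM GTP, 0.2 uM RCC1 final, PBS with DTT, Tween-20 and BSA. Post-read taken 45 min after Ran addition.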
Rango complex inh = inhibitors of Rango-importin beta complex formation. 0.031% of 340,000 active. AID 540263. Rango CFP/YFP FRET sensor + importin beta, 45 min. Potency, µM (highest dose often 92.2 µM), for inactives: at the highest dose inhibition of complex formation. Q14974; active = rising FRET ratio curve, often small or poorly fitted; inconclusive = mostly compound fluorescence or quenching in the first reads; inactive = flat curves in all reads;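 further: potency means the concentration at half of the fitted maximal effect; 0% = DMSO wells and 100% = buffer wells lacking importin beta; nearly all actives have a fitted effect of over 15% in size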
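FRET biosensor (snurportin 1 IBB flanked by EYFP and cerulean), 50 nM, with compound 5 min, then 0.125 microM importin beta in PBS, 1 mM DTT, 0.02% Tween-20, 0.1% BSA. CFP/YFP ratio read after 45 min at room temperature; pre-read flags interference.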
GLA inh pH 4.5 = inhibitors of human alpha-galactosidase A at pH 4.5; 230,000 tested, under 10 active; activity change, negative = inhibition, % at 105 µM; purified enzyme, 4-MU-alpha-Gal fluorescence, pH 4.5; P06280; inconclusive = small, poorly fitted or top-dose-only inhibition, or a rising curve; inactive = flat fitted curve, though single readings scatter; no compound was filed as active;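 further: 0% = full activity with enzyme and -100% = basal without enzyme; dose as in the result columns while the protocol names 77 µM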
Target sequence (P06280 whole entry, looked up): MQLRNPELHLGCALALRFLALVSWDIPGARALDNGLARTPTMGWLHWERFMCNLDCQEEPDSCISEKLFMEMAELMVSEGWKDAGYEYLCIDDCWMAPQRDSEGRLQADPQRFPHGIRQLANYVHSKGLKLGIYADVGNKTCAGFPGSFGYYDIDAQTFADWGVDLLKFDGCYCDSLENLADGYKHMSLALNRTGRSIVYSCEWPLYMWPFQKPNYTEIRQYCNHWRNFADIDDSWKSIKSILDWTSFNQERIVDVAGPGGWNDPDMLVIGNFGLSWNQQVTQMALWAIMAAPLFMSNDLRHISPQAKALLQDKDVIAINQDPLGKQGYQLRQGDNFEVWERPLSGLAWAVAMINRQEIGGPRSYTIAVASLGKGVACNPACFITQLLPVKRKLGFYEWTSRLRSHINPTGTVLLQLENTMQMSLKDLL
miR-21 FLuc = raises the signal of a miR-21 reporter; HeLa miR-21 FLuc reporter, luciferase, 48 h; Potency, µM (series often up to 38.3 µM), inactives show at the highest dose reporter change, positive = more light; 340,000 tested, under 10 active; AID 2288; active = well fitted rising curve with a large enough effect; inconclusive = small, poorly fitted or top-dose-only effect; inactive = no such curve, though single readings can be large or run the other way;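 further: % of control where 0% means no effect; miR-21 action dims this reporter so a rising signal means less miR-21 action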
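Using DMEM plus 10% FBS, HeLa miR-21-FLuc cells are incubated with test compounds (final up to about 40uM) for 48 hours; firefly luciferase signal is then imaged following reagent-mediated lysis.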
An asterisk follows results filed as active; ? = inconclusive; . = no result given.

Compound,Rango dissoc inh,Rango complex inh,GLA inh pH 4.5,miR-21 FLuc
CCC(C)Sc1nnc(Cc2cc(=O)[nH]c(=O)[nH]2)n1-c1ccc(F)cc1 (configuration not stated),3%,-0.3%,-7,1%
O=C(NCC(c1ccco1)N1CCc2ccccc2C1)C(=O)Nc1cc(F)ccc1F (configuration not stated),12%,-2.0%,.,.
Cc1ccc(-c2cc(C)nc3nc(N)nn23)cc1,1%,-0.2%,-7,-8%
COc1ccc(C(=O)Nc2nc3ccc(S(C)(=O)=O)cc3s2)cc1,-5%,-0.1%,-6,-21%
O=C(c1cccnc1)N(Cc1ccccc1)C(=O)c1cccnc1,3%,-1.2%,.,.
CCOC(=O)c1ccc(N=Cc2c(O)c3ccccc3oc2=O)cc1,12%,?,.,-1%
O=C(CN1CCN(C(=O)CCC(=O)N2CCC(c3ccccc3)=N2)CC1)Nc1ccc(F)cc1,5%,4.1%,.,.
Nc1n[nH]c(=S)n1-c1ccc(Cl)cc1,1%,0.0%,1,-8%

For reference, some entries already given.
Compound,Rango dissoc inh,Rango complex inh,GLA inh pH 4.5,miR-21 FLuc
CCC(C)Sc1nnc(Cc2cc(=O)[nH]c(=O)[nH]2)n1-c1ccc(F)cc1 (configuration not stated),3%,-0.3%,-7,1%
O=C(NCC(c1ccco1)N1CCc2ccccc2C1)C(=O)Nc1cc(F)ccc1F (configuration not stated),12%,-2.0%,.,.

Carrying on:
Compound,Rango dissoc inh,Rango complex inh,GLA inh pH 4.5,miR-21 FLuc
CC1CCN(C2(O)C(=O)Nc3ccc(Cl)cc32)CC1 (configuration not stated),-18%,2.4%,.,0%
CCN(CCC(=O)Nc1ccc(Br)c(C)c1)Cc1ccccc1,2%,1.4%,-12,-2%
N#Cc1ccccc1S(=O)(=O)N1CCN(C(=O)C2CC(=O)N(c3ccc4c(c3)OCCO4)C2)CC1 (configuration not stated),-6%,1.9%,.,.
Cc1c(Cl)cccc1NC(=O)Cn1c(CCC(=O)O)ccc1-c1ccc(Cl)cc1,-1%,-3.6%,.,1%
O=C(Cc1cccc2ccccc12)Nc1ccc(-c2cc3ccccc3oc2=O)cc1,?,?,19,13%
COc1ccc(SN=C2C(C)=CC(=O)C=C2C)cc1,1%,4.2%,-6,5%
Cc1nc2ccccc2cc1OCc1ccc(F)cc1,3%,3.3%,-6,-3%
COc1cccc(NC(=O)COc2ccc(C)cc2)c1,?,1.3%,-5,-61%
O=S(=O)(NCc1cccnc1)c1cccs1,-1%,-1.9%,-8,-1%
CCOc1ccc(S(=O)(=O)Nc2ccccn2)c2ccccc12,11%,1.4%,2,-3%
Cc1ccc2nc(SCC(=O)c3ccc4c(c3)NC(=O)CO4)[nH]c2c1,-14%,-4.7%,-4,-6%
CCCN(CCC)CCCNS(=O)(=O)c1ccc2c(c1)oc(=O)n2C,-1%,0.0%,2,-5%
CCOC(=O)c1cc2c(ccn2C)n1CC(=O)N1CCC(Cc2ccccc2)CC1,-9%,0.9%,3,5%
Cc1cc(C)n(-c2ccc(C(=O)Nc3nnc(C4CC4)s3)cc2)n1,0%,-3.3%,0,3%
COc1ccc(C(C(=O)NCC2CCCO2)N(C(=O)CNC(=O)c2cccs2)c2ccc(NC(C)=O)cc2)cc1OC (configuration not stated),-10%,-2.4%,1,-1%
COc1ccc(-n2c(=O)[nH]cc(C(=O)Nc3ccc4c(c3)OCCO4)c2=O)cc1OC,-12%,0.2%,.,-2%
N#CCC(=O)Nc1ccc(C(=O)OCC(=O)NC(=O)Nc2ccc3c(c2)OCCO3)cc1,-6%,-1.8%,.,.
Cc1cc(NC(=O)C2CCCCC2C(=O)O)ccc1NC(=O)c1ccccc1 (configuration not stated),-2%,-1.3%,.,-1%
Cc1cccc(C(=O)Nc2ccc(C(=O)N/N=C/c3cccc(C)n3)cc2)c1,-4%,?,.,1%
O=C(NCc1ccc(N2CCCC2=O)cc1)NC1CCCCC1,2%,-1.6%,-4,1%
S=C(NCCc1ccccc1)N1CCN(C(c2ccccc2)c2ccccc2)CC1,8%,4.3%,-3,18%
Nc1c(-c2ccccc2)c(CSc2nc3ccccc3[nH]2)nn1-c1cccc(Cl)c1,?,-1.6%,7,29%
CCOC(=O)N1CCC(Nc2c(NCCCOC)c(=O)c2=O)CC1,-14%,-3.1%,-4,0%
Cc1c(C#N)c(N=CN(C)C)c(C(=O)c2ccccc2)n1-c1ccccc1,1%,0.5%,-17,-14%
COc1ccc(S(=O)(=O)NNC(=O)Nc2ccc(F)cc2)cc1,0%,0.1%,.,.
CCOC(=O)c1sc(N2C(=O)C(O)=C(C(=O)c3ccco3)C2c2ccc([N+](=O)[O-])cc2)nc1C (configuration not stated),-11%,?,.,.
O=C(NC(=S)NCC1CCCO1)C(c1ccccc1)c1ccccc1 (configuration not stated),-6%,-3.8%,5,-4%
Cc1ccc(-c2nnc(SCC(=O)NC3CCS(=O)(=O)C3)nc2-c2ccc(C)cc2)cc1 (configuration not stated),14%,-0.8%,1,2%
COc1ccc(S(=O)(=O)NCCc2ccccc2)cc1OC,2%,-0.1%,.,-13%
CCOC(=O)c1sc(SC)c2c1CCC/C2=N/OC,-4%,0.0%,-8,-4%
CCCc1cc2c(cc1NC(=O)c1ccc(C)cc1)OCO2,-2%,-1.1%,1,-17%
Cc1ccc(OCC(=O)N2C(C)CCCC2C)c([N+](=O)[O-])n1 (configuration not stated),-4%,-0.2%,.,.
O=C(COc1ccc2ccccc2c1)N1CCNCC1,1%,-0.3%,.,-24%
Cc1nnc(NC(=O)Cn2cnc3c2c(=O)n(C)c(=O)n3C)s1,-3%,-0.7%,-2,1%
CCc1ccc(NC(=O)C(=O)NNC(=O)c2ccc(OC)cc2)cc1,3%,0.6%,.,0%
COc1cc(C)ccc1OCCOCCOc1ccc([N+](=O)[O-])cc1,-19%,?,8,-4%
CCOc1ccc(-c2nc(N)ncc2-c2ccc(Cl)cc2)c(O)c1,-2%,0.0%,.,0%
CCOc1ccc(-c2nnc(-c3cccs3)o2)cc1,?,?,-22,-19%
CC(C(=O)NCc1ccco1)n1cc([N+](=O)[O-])cn1 (configuration not stated),24%,-0.2%,1,-2%
O=C(/C=C/c1ccccc1Cl)NCc1cccs1,1%,?,-5,-51%
CCc1ccc(NC(=O)C(=O)NCCN2CCN(Cc3ccc([N+](=O)[O-])cc3)CC2)cc1,-18%,1.7%,7,5%
COc1cccc(N2CCN(C(=O)c3ccc(CS(=O)c4ccccc4Cl)o3)CC2)c1 (configuration not stated),3%,0.8%,.,26%
CN1CCN(C(=O)c2ccccc2NC(=O)Cc2ccccc2)CC1,23%,-3.2%,-5,-3%
COc1ccc2cc(S(=O)(=O)N3CCCC(C)C3)ccc2c1 (configuration not stated),-9%,-1.2%,.,11%
CN(C)C(C)(C)C#CCCCCC#CC(C)(C)N(C)C,-15%,0.3%,1,-4%
C=CCc1cccc(/C=N/NC(=O)COc2ccc(-n3cnnn3)cc2)c1O,-12%,-2.0%,.,0%
CCc1ccc(CN2CCCC(C(=O)Nc3ccc(-c4cscn4)cc3)C2)o1 (configuration not stated),4%,-0.4%,.,-9%
COc1ccc(-c2cc(-c3ccccc3)c(C#N)c(S(C)=O)n2)cc1 (configuration not stated),-9%,-1.4%,21,?
CC1CCCCN1C(=O)CCn1c(=O)oc2ccccc21 (configuration not stated),14%,-0.7%,.,-8%
O=C(O)C1(NS(=O)(=O)c2ccc(F)c(Cl)c2)CCCCC1,-1%,5.0%,-6,-4%
Cc1ccc(N/N=C/c2c(O)cc(C)oc2=O)cc1,?,0.3%,-6,-22%
COc1ccc2cc3cc(C(=O)NC4CC4)sc3nc2c1,11%,-3.1%,.,-38%
Cc1ccc(C(=O)N2CCN3C(=O)c4ccccc4C23c2ccccc2)cc1 (configuration not stated),0%,-0.8%,-2,3%
Cn1nc(C(=O)NNC(=O)Cc2ccc(S(=O)(=O)N3CCOCC3)s2)c2ccccc2c1=O,-18%,0.7%,.,.
CC(=O)Nc1ccc2nc(SCC(=O)NCCOc3ccccc3)sc2c1,4%,-2.4%,-1,0%
CCOC(=O)c1c(-c2ccccc2)csc1NC(=O)CCN1CCOCC1,-12%,0.8%,1,16%

(more compounds)
Compound,Rango dissoc inh,Rango complex inh,GLA inh pH 4.5,miR-21 FLuc
CCOC(=O)C1CCCN(C(=O)Cn2cnc3c2c(=O)n(C)c(=O)n3C)C1 (configuration not stated),-12%,1.0%,-5,-4%
CCc1cc2c(NCCC(=O)O)nc(C)nc2s1,-16%,-0.3%,4,-6%
Cc1cc(/C=N/NS(=O)(=O)c2ccc(F)c(Cl)c2)no1,-1%,4.7%,7,3%
COCCCC1CCN(C(=O)C2CCC(=O)N(CCc3cccc(F)c3)C2)CC1 (configuration not stated),1%,-0.2%,.,-3%
COc1ccc(-c2c(C)c3ccc(O)cc3oc2=O)cc1,?,?,.,-72%
CSCC[C@H](NC(=O)c1cccc(S(=O)(=O)N2CCCCC2)c1)c1nc2ccccc2[nH]1,-5%,0.3%,.,.
CC(=O)NC(Cc1ccccc1F)C(=O)NC1CCN(S(=O)(=O)c2ccccc2)CC1 (configuration not stated),10%,-2.0%,.,-1%
COc1ccccc1N1CCN(CCCCOc2ccc(C)cc2C)CC1,7%,6.7%,.,-3%

Complete entries as entered above. Order of screens: Rango dissoc inh, Rango complex inh, GLA inh pH 4.5, miR-21 FLuc
CSCC[C@H](NC(=O)c1cccc(S(=O)(=O)N2CCCCC2)c1)c1nc2ccccc2[nH]1 in the list: -5%, 0.3%, ., .
CCOC(=O)C1CCCN(C(=O)Cn2cnc3c2c(=O)n(C)c(=O)n3C)C1 (configuration not stated) in the list: -12%, 1.0%, -5, -4%
Cc1cc(/C=N/NS(=O)(=O)c2ccc(F)c(Cl)c2)no1 in the list: -1%, 4.7%, 7, 3%
CC(=O)NC(Cc1ccccc1F)C(=O)NC1CCN(S(=O)(=O)c2ccccc2)CC1 (configuration not stated) in the list: 10%, -2.0%, ., -1%
CCc1cc2c(NCCC(=O)O)nc(C)nc2s1 in the list: -16%, -0.3%, 4, -6%

Continuation:
Compound,Rango dissoc inh,Rango complex inh,GLA inh pH 4.5,miR-21 FLuc
CCNS(=O)(=O)c1ccc(NC(=O)Nc2ccccc2OC)cc1,5%,0.0%,7,-18%
C=CCn1c(SCC(=O)N2CCN(c3ccc(F)cc3)CC2)nnc1-c1ccco1,-20%,4.2%,3,11%
NS(=O)(=O)c1cccc(NC(=O)COC(=O)C2CCN(S(=O)(=O)c3cccs3)CC2)c1,2%,0.1%,0,-13%
CCOC(=O)[C@H]1[C@H]2COc3ccc(C)cc3[C@@H]2N2C(=O)c3ccc(Cl)cc3NC(=O)[C@@]12C,2%,-3.3%,.,.
COc1cc(/C=N/NC(=O)CCn2c3ccccc3c3ccccc32)cc(OC)c1OC,-5%,3.4%,9,-8%
CCOCCCNC(=S)Nc1ccc2nc3n(c(=O)c2c1)CCCCC3,5%,3.8%,-3,-4%
COc1ccc(NC(=S)NCCc2ccccc2)c(C)c1,2%,-0.1%,.,-7%
CCOC(=O)c1[nH]n(-c2ccc(Cl)cc2)c(=O)c1C,-3%,0.8%,0,1%
COc1ccccc1-c1nc(C#N)c(N2CCN(c3ccccc3)CC2)o1,3%,-2.4%,9,-8%
c1cnc2ccc(C(c3nnnn3C3CCCC3)N3CCSCC3)cc2c1 (configuration not stated),4%,-1.6%,3,-11%
O=P(NC1CCCCC1)(c1ccccc1)c1ccccc1,9%,-2.0%,.,.

Compound activity: PubChem BioAssay, National Center for Advancing Translational Sciences (NCATS)

This is a subset; the hit share may differ from the screen's.
